gsp antagonist – antagonists of gsp mutant (McCune-Albright syndrome) | 340,000 tested, 0.4% active | Potency, µM (titrated, usually from 76.9 µM), for inactives: top-dose activity change, negative = inhibition, usual class: inhibitors | gsp-mutant cells, cAMP HTRF, 30 min; control for the full effect not named in the record | AID 624288; active = falling curve of any shape with a large fitted effect; inconclusive = falling curve, mostly with a smaller effect; inactive = flat or rising curve; cell line not stated here;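 also: intracellular cAMP measured with PDE inhibitor Ro 20-1724 present during compound exposure; potency is read from the fitted curve at half-maximal effect; % is scaled to controls: 0 for no effect and ±100 for the full control effect; nearly all actives have a fitted effect of over 65% in size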
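Measurement of cellular cAMP by homogeneous time-resolved fluorescence following a 30 min compound exposure at 37C. The PDE inhibitor […] was present throughout; the assay buffer was DPBS with 0.05% BSA and 0.005% Tween 20.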
Menin MLL FP FL – menin-MLL binding inhibition, fluorescein peptide; AID 1766; FP activity change, % at 61.4 µM; Fluorescence polarization, fluorescein-MLL peptide displacement from menin; 290,000 tested, under 10 active; inconclusive = falling polarisation curve, or a change in total fluorescence; inactive = total fluorescence flat and polarisation flat or rising; no compound was filed as active; the % refers to the polarisation; negative = inhibition;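 also: % of control where 0% means no effect; inhibitors lower the polarisation; unlabelled MLL peptide was the positive control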
ClpP mod – qHTS Assay for Activators of ClpP; purified B. subtilis ClpP, FRET peptide cleavage, 20 min; Potency, µM (doses to about 57.5 µM), inactives show at the highest dose activity change, negative = active; 340,000 tested, 1.9% active; active = well fitted falling curve with a large enough effect; inconclusive = small, poorly fitted or top-dose-only effect; inactive = no such curve, though single readings can be large or run the other way; also: potency is read from the fitted curve at half-maximal effect; the source files actives as falling curves though it sought activators and does not explain the sign; nearly all actives have a fitted effect of over 65% in size; many hits overshoot -100%
Target sequence (P80244 whole entry, looked up): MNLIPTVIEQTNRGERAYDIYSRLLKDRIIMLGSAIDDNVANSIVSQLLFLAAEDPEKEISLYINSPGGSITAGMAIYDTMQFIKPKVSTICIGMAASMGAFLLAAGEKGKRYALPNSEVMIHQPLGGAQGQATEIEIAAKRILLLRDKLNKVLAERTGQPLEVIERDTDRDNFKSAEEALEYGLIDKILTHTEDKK
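Purified B. subtilis ClpP, 10 microg/mL final in Tris/HCl pH8 with KCl, BSA, glycerol and Tween-20, cleaved an Abz/nitrotyrosine-quenched decapeptide. Fluorescence (ex 320, em 430) was read at 0 and 20 min at room temperature. Delta was normalized to 5.8 microM ADEP and DMSO/no-enzyme controls.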
gsp agonist – gsp mutant agonism | gsp mutant cells, cAMP HTRF, 30 min; control for the full effect not named in the record | Potency, µM (series often up to 76.9 µM), for inactives: top-dose activation (cAMP increase), hits mostly activators | 340,000 tested, 0.13% active; active = well fitted activation curve with a large enough effect; inconclusive = small, poorly fitted or top-dose-only effect, or another doubt; inactive = no such curve, though single readings can be large or run the other way; cell line not stated here;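 also: phosphodiesterase inhibitor Ro 20-1724 added with compounds to block cAMP breakdown; potency is read from the fitted curve at half-maximal effect; nearly all actives have a fitted effect of over 60% in size; about a fifth of the inactives were tested at one dose only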
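Cells stably selected in G418 were plated at 2000/well, grown 16-24 hr, then given compounds in DMSO with the PDE inhibitor […] (300 uM solution added) for 30 min at 37C; cAMP was read by HTRF.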
TRPML1 agonist – human mucolipin-1 channel agonism; Q9GZU1; TRPML1-expressing cells, Ca2+ dye fluorescence, FDSS; host cell line not named in the record; reference of the full effect not given here; activation, % (test concentration not listed); 410,000 tested, 0.12% active; in the data active = activation above about 50%; inconclusive = about 30% to 50%; inactive = below about 30%; also: 0% is about no effect; the text of the record puts the active cut at 80%
Target sequence (Q9GZU1 whole entry, looked up): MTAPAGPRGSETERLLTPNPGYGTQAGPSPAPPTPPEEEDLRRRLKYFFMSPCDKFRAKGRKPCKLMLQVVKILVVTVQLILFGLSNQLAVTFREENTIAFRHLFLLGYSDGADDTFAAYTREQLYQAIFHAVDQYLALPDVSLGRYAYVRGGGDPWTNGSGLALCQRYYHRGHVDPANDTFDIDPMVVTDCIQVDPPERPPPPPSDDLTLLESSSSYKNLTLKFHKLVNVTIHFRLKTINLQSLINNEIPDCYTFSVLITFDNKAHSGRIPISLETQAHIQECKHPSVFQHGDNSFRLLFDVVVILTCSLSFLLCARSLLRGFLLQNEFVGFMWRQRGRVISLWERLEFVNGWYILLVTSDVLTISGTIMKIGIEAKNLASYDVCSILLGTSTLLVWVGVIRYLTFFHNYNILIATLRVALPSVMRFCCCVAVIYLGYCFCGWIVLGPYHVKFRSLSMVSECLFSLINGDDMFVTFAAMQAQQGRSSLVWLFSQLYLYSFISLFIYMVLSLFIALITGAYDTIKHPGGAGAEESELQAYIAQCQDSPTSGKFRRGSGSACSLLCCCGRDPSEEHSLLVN
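Calcium fluorescence on an FDSS kinetic reader gave the read-out. Tet-induced TRPML1-DL cells were plated overnight, dye-loaded (Ca8 with quencher, 45-90 min, room temperature, dark), then read 110 s after compound addition, and again 110 s after 4uM final 54-4 (EC80).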
TRPML1 inh – human mucolipin-1 channel inhibition | Q9GZU1 | TRPML1-inducible cells, Ca2+ dye fluorescence, FDSS; active compounds read low; inhibition of EC80 agonist-evoked calcium signal | activity change, negative = inhibition, % (concentration not given with the values) | 390,000 tested, 0.02% active; in the data active means activity change below about -50%; inconclusive means about -30% to -50%; inactive means above about -30%;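 also: stimulus is agonist 54-4 at its EC80 concentration; % is scaled to controls: 0 for no effect and ±100 for the full control effect; the text of the record puts the active cut at -80%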
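Calcium fluorescence in TRPML1-DL cells induced overnight with Tet: a 110 s read after compound pin addition, then a 110 s antagonist read after challenge with 54-4 at 4 uM final (EC80).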
Starred values were filed as active, the others as inactive; ? = inconclusive; · = no result given; & = joins results of further samples; [ ] = dose if it differs, or a comment.

SMILES | gsp antagonist | Menin MLL FP FL | ClpP mod | gsp agonist | TRPML1 agonist | TRPML1 inh
Cc1cccc(Nc2nc(C)nc3c2oc2ccccc23)c1 | -12% | 2.8 | -20% | 6% | · | ·
Cc1cc(C(=O)Cn2nnc(-c3ccc(Cl)cc3)n2)c(C)n1CC1CCCO1 (configuration not stated) | -12% | 3.6 | -2.2% | -2% | 2.4 | 17
CN(C)CC(C)(C)CNC(=S)NCc1ccc2c(c1)OCO2 | 7% | 4.3 | -2.6% | -16% | -0.3 | -16
Cc1ccc(S(=O)(=O)Nc2cc(Cl)ccc2-n2cncn2)cc1 | -19% | · | 1.7% | -9% | 2.2 | 46
C=CC[C@@H](CC(=O)NCCO)C(=O)N[C@H](COC(=O)[C@@H](CC=C)Cc1ccc(F)cc1)Cc1c[nH]c2ccccc12 | -11% | · | 0.4% | · | 2.2 | 0
Cc1cccc(N2N=C(C(=O)Nc3nc(C)cs3)CCC2=O)c1 | 9% | -4.1 | -0.9% | -44%[inhibitor] | 0.5 | -23
CCOc1cc2[nH]c(=S)n(CC3CCCN3CC)c(=O)c2cc1OCC (configuration not stated) | 7% | 1.1 | -7.5% | -46%[inhibitor] | -0.3 | -13
Cc1ccc(/C=C(\C#N)C(=O)Nc2cc(C)ccc2C)cc1 | · | · | 12% | · | 0.0 | 13
COc1ccc(C(C(=O)NC2CCCC2)N(Cc2ccccc2)C(=O)c2snc(C(N)=O)c2N)cc1OC (configuration not stated) | -5% | · | -24% | -2% | 2.7 | 8
O=C(NCCc1ccc(Cl)cc1)C1CCCN1C(=O)Nc1ccc(F)cc1 (configuration not stated) | -3% | -1.8 | -0.4% | 8% | -0.1 | -23
CCC(C)C(NC(=O)C1CCC(C)CC1)C(=O)NCc1cccnc1 (configuration not stated) | 13% | 1.4 | -1.0% | -33%[inhibitor] | -0.1 | 38
COc1ccccc1C(CNC(=O)C(CCSC)NC(=O)c1ccccc1Cl)N1CCCC1 (configuration not stated) | 3% | · | · | 1%[15.4 µM] | 0.3 | 6
CCCc1nnc(NC(=O)Nc2ccccc2Cl)s1 | · | · | -4.5% | · | 2.2 | 1
CC(=O)Nc1cccc(C(=O)NNC(=O)c2n[nH]c(=O)c3ccccc23)c1 | 10% | · | · | 8%[15.4 µM] | 0.3 | 30
CC(C)(C)n1nnnc1C(c1cccc(C(F)(F)F)c1)N1CCOCC1 (configuration not stated) | -1% | 0.9 | -7.5% | 14% | -0.1 | -3
Cc1occc1-c1nnc(SCC(=O)NC2CC2)n1C | 9% | · | -2.6% | 15% | 0.7 | 5
COCCn1cnnc1SCC(=O)Nc1cccc(S(=O)(=O)N(C)c2ccccc2)c1 | 0% | 9.4 | · | 0% | -0.7 | 0
COc1ccc(-c2nnn(CC(=O)NC3CCCc4ccccc43)n2)cc1OC (configuration not stated) | -5% | 0.9 | -5.5% | -4% | 3.9 | 0
Cc1cc(Cl)c(OCCCCN2CCOCC2)c(Br)c1 | 10% | -0.4 | -1.0% | 1% | 1.0 | 14
CCC(=O)Nc1nnc(S(=O)(=O)N(C)Cc2ccccc2)s1 | · | · | -3.2% | · | 0.7 | 3
CNC(=O)c1cc(NC(=O)CCn2nc(-c3ccccc3)c3ccccc3c2=O)ccc1OC | -34% | 4.3 | 0.7% | -5%[15.4 µM] | 0.0 | -1
COc1ccc(OC)c(NC(=O)c2ccc(NC(C)=O)cc2)c1 | -3% | 2.4 | 1.0% | -33%[inhibitor] | -1.0 | 3
CCN(CC)S(=O)(=O)c1ccc(NC(=O)Cc2cccs2)cc1 | 10% | 7.9 | · | 11%[15.4 µM] | -0.4 | -10
O=C(COC(=O)/C=C/c1ccc(S(=O)(=O)N2CCOCC2)cc1)Nc1ccc(F)c(F)c1F | -9% | · | -2.7% | -2%[15.4 µM] | 1.0 | 6
COc1ccc(N2CCN(c3oc(Cc4ccccc4)nc3C#N)CC2)cc1 | -6% | -0.4 | -2.9% | -9% | 0.4 | -9
SMILES | gsp antagonist | Menin MLL FP FL | ClpP mod | gsp agonist | TRPML1 agonist | TRPML1 inh
CCCS(=O)(=O)C/C(N)=N/OC(=O)c1ccc(Cl)cc1 | 4% | -0.2 | · | -12%[15.4 µM] | 0.8 | 3
CCCOc1ccc(C(C)=O)cc1CC(C(=O)OCC)C(=O)OCC | ? | 2.3 | -1.9% | -1% | 1.5 | -5
O=C(O)C1C2CCC(C2)C1C(=O)Nc1ccccc1 (configuration not stated) | 6% | · | 0.8% | 17%[15.4 µM] | 0.5 | -9
C=CC(COCc1ccccc1)N(Cc1ccc(OC)cc1)S(=O)(=O)c1ccccc1Br (configuration not stated) | -8% | -1.1&2.1 | -2.2% | · | 1.2&2.2 | 16&36
O=C(NNC(=O)c1cc(O)c(O)c(O)c1)NC1CCCCC1 | 4% | 3.6 | -1.1% | 0% | -0.2 | -13
COc1c(/C=N/NC(N)=S)c(C)nn1-c1ccccc1 | 4% | 3.5 | · | 19% | 1.0 | -8
O=C(COc1ccccc1)NCC(=O)N/N=C/c1ccccc1 | 17% | 2.7 | 1.4% | 0% | 0.6 | 1
O=[N+]([O-])c1cc([N+](=O)[O-])c(Oc2c(F)cc(F)cc2F)cc1NN1CCCCC1 | -8% | -3.5 | -3.1% | · | -0.3 | -5
CCCNC(=O)C(Cc1cccc(OC)c1)NC(=O)c1ccc(C(C)(C)C)cc1 (configuration not stated) | 2% | · | 1.1% | -5% | 1.2 | 10
COCCN1C(=O)N[C@@H](c2cccc(F)c2)C(C(C)=O)=C1C | 6% | -0.1[11.7 µM] | 0.9% | -52% | 0.1 | 2
CCc1oc2c(C)c(O)ccc2c(=O)c1-c1ccc2ccccc2n1 | 12% | -1.7 | -1.2% | 30% | -0.3 | -3
COc1ccc(NC(=O)C(=O)N/N=C/c2cc(C)n(-c3cccc(Cl)c3Cl)c2C)c(OC)c1 | 2% | 8.4 | -17% | -18% | 0.5 | -15
O=C1NC(=O)C([N+](=O)[O-])=C(O)C1=O | · | · | 3.4% | -44%[inhibitor] | -0.7 | -8
Cc1ccc(-n2cccn2)c(CN2CCCC(C(=O)c3ccc4c(c3)OCO4)C2)c1 (configuration not stated) | -1% | 8.2 | · | -4% | 0.5 | 2
COCCCN1C2=C(C(=O)CC(C)(C)C2)C(c2ccc(O)c(OC)c2)C2=C1CC(C)(C)CC2=O | -7% | -5.4 | 1.1% | -7%[15.4 µM] | -0.4 | 3
O=C(c1ccccc1)N1c2ncnn2C2(CCCCC2)[C@@H]2CCCC[C@@H]21 | · | · | -3.9% | · | -0.1 | -3
COc1ccccc1N1CCN(CC(=O)Nc2nccs2)CC1 | 13% | -1.6 | 0.2% | -7%[15.4 µM] | -0.6 | 42
CCC(=O)Nc1ccc(C(=O)NNC(=O)COc2cccc(C)c2)cc1 | 12% | 2.2 | -3.3% | ? | 0.9 | 35
CCCN(C(=O)COc1cc(=O)n(CC)c2ccccc12)c1ccc(C(C)C)cc1 | · | · | -1.0% | · | -0.7 | 11
O=c1c2ccccc2nc(/C=C/c2cc(Br)ccc2O)n1CCCO | 8% | ? | -3.0% | 3%[15.4 µM] | 2.6 | 9
COc1ccc(C(CNC(=O)COc2ccc(F)cc2Br)N2CCCC2)cc1 (configuration not stated) | -1% | 0.9 | · | 7%[15.4 µM] | 1.3 | 10
Cc1ccc(-n2ncc3c2CC(C)(C)CC3NC(=O)c2cc[n+]([O-])cc2)cc1 (configuration not stated) | 3% | -8.6 | -7.1% | 0%[15.4 µM] | 0.8 | 16
O=C(CSc1nc2ccccc2o1)N/N=C/c1ccc(O)c(O)c1 | -11% | 1.2 | -7.6% | 17% | 0.4 | -17
COc1ccc(CCN2C(=O)CSC2=Nc2ccc(C)cc2C)cc1OC | 12% | 2.1 | 1.0% | 0%[15.4 µM] | 0.6 | -15
Cc1cccc(OCC(=O)Nc2ccccc2C(=O)OCc2cc(=O)n3ccsc3n2)c1 | · | · | -30% | · | -0.5 | -21

Profiles as entered above:
COc1ccc(CCN2C(=O)CSC2=Nc2ccc(C)cc2C)cc1OC as listed: gsp antagonist: 12%; Menin MLL FP FL: 2.1; ClpP mod: 1.0%; gsp agonist: 0%[15.4 µM]; TRPML1 agonist: 0.6; TRPML1 inh: -15
O=c1c2ccccc2nc(/C=C/c2cc(Br)ccc2O)n1CCCO as listed: gsp antagonist: 8%; Menin MLL FP FL: ?; ClpP mod: -3.0%; gsp agonist: 3%[15.4 µM]; TRPML1 agonist: 2.6; TRPML1 inh: 9

Molecules listed so far with bromine:
SMILES | gsp antagonist | Menin MLL FP FL | ClpP mod | gsp agonist | TRPML1 agonist | TRPML1 inh
Cc1cc(Cl)c(OCCCCN2CCOCC2)c(Br)c1 | 10% | -0.4 | -1.0% | 1% | 1.0 | 14
C=CC(COCc1ccccc1)N(Cc1ccc(OC)cc1)S(=O)(=O)c1ccccc1Br (configuration not stated) | -8% | -1.1&2.1 | -2.2% | · | 1.2&2.2 | 16&36
O=c1c2ccccc2nc(/C=C/c2cc(Br)ccc2O)n1CCCO | 8% | ? | -3.0% | 3%[15.4 µM] | 2.6 | 9
COc1ccc(C(CNC(=O)COc2ccc(F)cc2Br)N2CCCC2)cc1 (configuration not stated) | -1% | 0.9 | · | 7%[15.4 µM] | 1.3 | 10

Going on with the list:
SMILES | gsp antagonist | Menin MLL FP FL | ClpP mod | gsp agonist | TRPML1 agonist | TRPML1 inh
O=C(NCc1ccccn1)c1ccc(OC2CCN(Cc3ccc(F)cc3F)CC2)cc1 | -1% | -4.0 | · | -1% | 0.4 | 19
CC(OC(=O)c1ccccc1CCc1ccccc1)C(N)=O (configuration not stated) | -1% | -1.2 | · | -11%[15.4 µM] | 0.8 | -1
COCCCNc1oc(-c2cccs2)nc1S(=O)(=O)c1ccc(C)cc1 | -52% | ? | · | 5%[15.4 µM] | -0.7 | -9
COc1ccc(F)cc1S(=O)(=O)NCC(c1ccco1)S(=O)(=O)c1cccs1 (configuration not stated) | · | · | -2.0% | · | 1.7 | -29
COc1cc(NC(=O)CCc2c(C)nc3c(c(C)nn3-c3ccccc3)c2C)cc(OC)c1OC | · | · | -18% | · | -0.1 | 13
CCOc1ccc(/C=C/C(=O)N(CC)CC(=O)NCc2cccs2)cc1OC | -5% | · | ? | -36%[inhibitor] | -0.4 | -3
CC(C)(C)c1ccc(S(=O)(=O)N2CCN(CC(O)COCC3CCCO3)CC2)cc1 (configuration not stated) | 2% | · | 0.5% | 6% | -0.1 | 1
COC(=O)c1ccccc1S(=O)(=O)N1CCC(NC(=O)c2ccccc2)CC1 | 3% | 3.7 | -0.5% | 3% | · | ·
O=C(Nc1ccn(CCCN2CCN(c3ccccn3)CC2)c(=O)n1)OCc1ccccc1 | 0% | · | -3.4% | · | -0.4 | -3
O=[N+]([O-])c1ccc(N2CCCC2)cc1NCc1ccccc1 | -3% | 1.5 | 0.4% | 23% | 0.2 | -8

Screens (PubChem BioAssay)

The order is random; about 2.1% have a hit in one of these screens.
